Vaccinia Venus: qHTS for Stage-Specific Inhibitors of Vaccinia Orthopoxvirus: Venus Reporter Primary qHTS; Vaccinia virus Venus reporter expression, fluorescence; Potency, µM (doses to about 36.5 µM), inactives show at the highest dose activity change, negative = inhibition, usual class: inhibitors; actives 0.46% (n = 330,000); active means well fitted inhibition curve with a large enough effect; inconclusive means small, poorly fitted or top-dose-only effect; inactive means no such curve, though single readings can be large or run the other way; tested in A549 cells; further: nearly all actives have a fitted effect of over 30% in size; inactives centre near -10
VACV mCherry inh: qHTS for Stage-Specific Inhibitors of Vaccinia Orthopoxvirus: mCherry Reporter Primary qHTS; Vaccinia virus mCherry reporter infection, fluorescence; about a quarter of the inactives have no number; Potency, µM (titrated, usually from 36.5 µM), for the others: at the top dose activity change, negative = inhibition, hits mostly inhibitors; actives 0.63% (n = 310,000); active = well fitted inhibition curve with a large enough effect; inconclusive = small, poorly fitted or top-dose-only effect; inactive = no such curve, though single readings can be large or run the other way; tested in A549 cells; further: nearly all actives have a fitted effect of over 35% in size; inactives centre near -10
Starred values were filed as active, the others as inactive; i = inactive; ? = inconclusive; . = no result given; [ ] = another dose, or the depositor's remark. On the % scale 0 is the no-effect control and ±100 the full control effect; potency means the concentration at half of the fitted maximal effect.

SMILES	Vaccinia Venus	VACV mCherry inh
Cc1ccc(-c2cn3cccc(C)c3n2)cc1	-25.2%	-21.8%
COc1ccc(CC(=O)OCC(=O)NC(=O)Nc2ccccc2F)cc1	-8.0%	-13.4%
CC(NC(=O)COC(=O)C12CC3CC(CC(Br)(C3)C1)C2)c1ccccc1 (centres undefined)	0.4%	i
Cc1cccc(N2C(=O)CC(N3CCN(Cc4ccc(Cl)cc4)CC3)C2=O)c1 (centres undefined)	10.6%	1.8%
Cn1c(-n2cccc2)c(-c2c(-c3ccc(F)cc3)[nH]c3c2c(=O)[nH]c(=O)n3C)c(=O)[nH]c1=O	4.4%	i
Cc1ccccc1NC(=S)N(CCN(C)C)C(C)c1ccccn1 (centres undefined)	-6.0%	-23.5%
CCC(=O)N1CCc2cc(S(=O)(=O)NCCC(=O)Nc3cccc(SC)c3)ccc21	-3.7%	-5.3%
CCOc1ccccc1CNC(=O)CN1C(=O)C2CCCCN2c2ccc(C(=O)N(C)C)cc21 (centres undefined)	-2.6%	-3.8%
COc1ccc(S(=O)(=O)N(C)C[C@H]2OCCCC[C@H](C)Oc3ccc(N(C)C)cc3C(=O)N([C@H](C)CO)C[C@@H]2C)cc1	-15.2%	-19.7%
CCc1c(C(C)S(=O)(=O)c2ccccc2)[nH]c(=O)n1CC (centres undefined)	-7.8%	i
CC1CCN(S(=O)(=O)c2ccc(S(=O)(=O)N3CCCC3)cc2)CC1	-5.1%	-14.4%
Cc1ccc(CN2CCOc3ccc(CN4CCC(Oc5cccnc5)CC4)cc3C2)o1	-7.7%	-10.1%
COc1ccc(O)c(-c2cc(-c3ccc(F)cc3)n[nH]2)c1	?	?
COc1ccc(CC(=S)N2CCOCC2)cc1OC	-6.8%	-10.4%
O=P(c1ccc2c(c1)OCCO2)(N1CCOCC1)N1CCOCC1	-4.0%	-12.1%
CCCN(CCC)CCCNC(=O)Cn1cnc2onc(-c3ccc(F)cc3)c2c1=O	1.6%	1.2%
O=C(COC(=O)C1CC2CCCC(C1)C2=O)Nc1nc(-c2ccc(F)c(F)c2)cs1 (centres undefined)	-16.7%	i
CCCCn1c(=O)n(-c2ccc(Br)cc2F)c(=O)c2c3c(sc21)CN(C(C)=O)CC3	-6.8%	-21.5%
COC(=O)c1sc(S(=O)(=O)NCC(=O)O)c(C(=O)OC)c1C	-6.7%	i
Nc1ccn([C@@H]2O[C@H](C(=O)Nc3cc(C(F)(F)F)cc(C(F)(F)F)c3)[C@@H](O)[C@H]2O)c(=O)n1	0.7%	4.6%
Cc1cccc(C(=O)Nc2sc3c(c2C#N)CCCCC3)c1	-7.3%	-15.8%
CCc1cc(=O)oc2c3c(cc(OCC(=O)Nc4cccnc4)c12)OC(C)(C)CC3	-15.0%	-5.4%
CCCCCOC(=O)C1=C(C)NC(=O)NC1c1ccccc1OCC (centres undefined)	?	?
Cc1ccccc1NC(=O)c1c(C)oc2ccc(O)c(CN3CCCC(C)C3)c12 (centres undefined)	-13.7%	-20.3%
CCN(CC)S(=O)(=O)c1cccc(C(=O)N[C@H](C(=O)NNC(=O)c2ccccc2)C(C)C)c1	-17.5%	-1.5%

Sorted by length of the SMILES (descending): some entries from above.
SMILES	Vaccinia Venus	VACV mCherry inh
COc1ccc(O)c(-c2cc(-c3ccc(F)cc3)n[nH]2)c1	?	?
CCCCCOC(=O)C1=C(C)NC(=O)NC1c1ccccc1OCC (centres undefined)	?	?
Cc1ccccc1NC(=S)N(CCN(C)C)C(C)c1ccccn1 (centres undefined)	-6.0%	-23.5%

Remaining list, next part:
SMILES	Vaccinia Venus	VACV mCherry inh
FC(F)(F)c1ccc(-c2n[nH]c(=S)o2)nc1	-13.0%	-14.7%
COc1ccc(-c2cc3nc(-c4ccccc4)cc(N4CCC5(CC4)OCCO5)n3n2)cc1	-3.9%	-10.0%
CCCn1c(=O)c2sccc2n2c(CCCC(=O)N3CCN(c4cccc(Cl)c4)CC3)nnc12	-0.4%	-12.0%
O=C(NCCCNC(=O)c1ccc(Cl)cc1Cl)c1ccccn1	-1.8%	-9.1%
CSc1ccc(C(=O)N2CCc3ccc(NC(=O)c4ccccn4)cc3C2)cc1	?	-17.4%
CC(C)NC(=O)NC(=O)COC(=O)Cc1ccsc1	-9.5%	-17.9%
COC(=O)c1ccc(OCC(O)Cn2cnc3cc(C)c(C)cc32)cc1 (centres undefined)	-6.5%	-13.6%
CC1CCCC/C1=N\NC(=S)Nc1cccnc1 (centres undefined)	-4.9%	?
CC(C)n1cc(CN2CCC(n3nccc3NC(=O)CCCc3ccccc3)CC2)cn1	-9.1%	i
CCC(=O)c1c[nH]c(C(=O)NCCCn2ccnc2)c1	0.4%	.
CC1(C)CC2CC(C)(CN2C(=O)COC(=O)c2ccc(Cl)c(N)c2)C1 (centres undefined)	-10.0%	-0.9%
CSc1ncc(C(=O)NCc2cccc(Br)c2)c(-c2ccccc2)n1	-6.0%	-6.3%
CN(C(=O)CSc1nnc(NC2CCCCC2)s1)C1CCS(=O)(=O)C1 (centres undefined)	-9.8%	-13.9%
COc1cc(NCCCCC(C)N)c2nccc(C)c2c1 (centres undefined)	?	?
CCc1cc2c(cc3c(=O)n(CC(=O)NC(C)C)nc(CC)n32)s1	-11.3%	-14.1%
CCc1cc(-c2nnn(CCC3COCCO3)c2CC)ccc1-c1cn(CCc2c[nH]c3ccccc23)nn1 (centres undefined)	?	-25.1%
CCN(CCCNC(=O)CNC(=O)Cn1cnc2ccccc2c1=O)c1cccc(C)c1	-7.4%	.
CCN(CC)CCCNC(=O)c1cc(-c2ccc(Cl)c(Cl)c2)on1	?	i
Fc1ccc(C2=CC(c3ccco3)n3ncnc3N2)cc1 (centres undefined)	-3.5%	-6.7%
CCOc1ccc(C(=O)OCC(=O)Nc2cccc(S(=O)(=O)N3CCCC3)c2)cc1	-7.0%	-0.4%
CCN(CC)c1ccc(NC(=O)CN2CCN(c3ccc(F)cc3)CC2)cc1	-10.4%	-20.1%
CC(C)OC(=O)CSc1ncnc2c1cnn2-c1ccccc1	-4.4%	-13.5%
CCc1ccc2oc(C(=O)Nc3cccc(Cl)c3C)cc(=O)c2c1	-16.8%	-20.3%
CC(C)c1ccc2oc(-c3ccc(Cl)c(NC(=O)Cc4ccccc4)c3)nc2c1	-0.8%	-0.9%
C[C@@H]1CN([C@H](C)CO)C(=O)c2cc(NC(=O)NC3CCCCC3)ccc2O[C@H]1CN(C)S(C)(=O)=O	-1.8%	i
SMILES	Vaccinia Venus	VACV mCherry inh
O=C(COC(=O)[C@@H]1CCCN1S(=O)(=O)c1ccccc1F)Nc1ccc(OC(F)F)cc1	-3.8%	i
CCOC(=O)c1cc(-c2ccccc2)sc1NC(=O)COC	-9.0%	-16.4%
COC(=O)c1c(C)nn(-c2ccccc2)c1-n1cccc1	-6.7%	-8.4%
COc1ccc(C(CC(=O)c2ccc(C)cc2)C(C#N)C#N)cc1OC (centres undefined)	?	?
COc1ccc(Br)cc1/C=N/NC(=O)c1ccco1	1.0%	-8.2%
O=c1c2ccccc2nc(/C=C/c2c[nH]c3ccccc23)n1-c1ccc([N+](=O)[O-])cc1	-13.7%	-14.7%
O=C(C1CCCN(S(=O)(=O)c2cccc3nsnc23)C1)N1CC=C(c2ccccc2)CC1 (centres undefined)	?	?
Cc1ccccc1NC(=O)C(=O)NNC(=O)COc1ccc2ccccc2c1	-10.4%	-17.6%
COc1ccc(N2CCN(C(=O)c3cc(S(=O)(=O)N4CCCCCC4)cn3C)CC2)cc1	-6.6%	-3.9%
O=[N+]([O-])c1ccc(SCCc2ccncc2)cc1	3.4%	-2.3%
COc1ccc(Cl)cc1C(=O)C1CCCN(Cc2cnc(N3CCOCC3)s2)C1 (centres undefined)	-15.4%	-10.1%
CC(=O)Nc1ccc(OC(=O)Cc2ccc(Cl)cc2)cc1	-5.7%	i
Cc1oc(-c2cccs2)nc1CN1CC[C@@](O)(c2ccccc2)[C@H]2CCCC[C@@H]21	-10.6%	i
CC1CC(Nc2ccccc2)=CC(=O)O1 (centres undefined)	-12.1%	i[1.46 µM]
c1ccc(-c2nc3c(ccc4ccccc43)[nH]2)nc1	-26.3%	-15.1%[1.46 µM]
O=C(NCC(O)c1ccccc1)c1ccccc1 (centres undefined)	-15.5%	-16.5%
O=C(CSc1nc2nccnc2c(=O)n1Cc1cccs1)Nc1ccccc1	-9.3%	-15.1%
O=C(NC1CCCCC1)C(c1ccccc1F)N(Cc1ccco1)C(=O)c1ccccn1 (centres undefined)	-9.6%	i
O=C(CCCc1ccccc1)NCc1ccc2c(c1)OCO2	-16.0%	-13.0%
CSCCC(NC(=O)COc1ccccc1)C(=O)NCCOc1ccc(C)cc1 (centres undefined)	-16.4%	-8.2%
COC(=O)c1ccc(C(=O)OC)c(NC(=S)N2CCN(C)CC2)c1	-18.2%	-2.4%
CC(=O)Nc1cccc(OCC(=O)NCCC2=CCCCC2)c1	-9.9%	-15.0%
Cc1nc(C)c(NC(=O)OC(C)C)cc1NC(=O)OC(C)C	-5.7%	i
COc1cc(CC(=O)OCC(=O)N2CCCCC2C)cc(OC)c1OC (centres undefined)	-12.6%	-9.0%
O=C(Nc1nc2ccc([N+](=O)[O-])cc2s1)c1ccncc1	-2.3%	-11.2%

Entries of single compounds from above. Order of values: Vaccinia Venus	VACV mCherry inh
O=[N+]([O-])c1ccc(SCCc2ccncc2)cc1 as listed: 3.4%	-2.3%
COC(=O)c1c(C)nn(-c2ccccc2)c1-n1cccc1 as listed: -6.7%	-8.4%
CC(=O)Nc1cccc(OCC(=O)NCCC2=CCCCC2)c1 as listed: -9.9%	-15.0%
O=C(CCCc1ccccc1)NCc1ccc2c(c1)OCO2 as listed: -16.0%	-13.0%
Cc1nc(C)c(NC(=O)OC(C)C)cc1NC(=O)OC(C)C as listed: -5.7%	i

The listing continues.
SMILES	Vaccinia Venus	VACV mCherry inh
CCCCNCc1ccc(SC)cc1	-9.6%	-20.1%
COc1cc2c(cc1OC)C(C)N(S(=O)(=O)c1cn(C)cn1)CC2 (centres undefined)	7.0%	-14.1%
O=C(CSc1nc2ccccc2c(=O)n1CCCO)Nc1ccc2c(c1)OCCO2	-7.0%	-6.9%
O=S(=O)(N/N=C/c1cccc(OC2CSC2)c1)c1ccccc1	-10.9%	-4.7%
CCN(CC)C(=O)CC(c1ccc(OC)cc1)c1c(OC)cc(OC)c2ccc(=O)oc12 (centres undefined)	-9.2%	-18.1%
CCN(CC(=O)NCc1ccccn1)S(=O)(=O)c1ccc(OC)cc1	4.0%	-7.2%
COc1ccccc1-c1ccc(/C=C2\C=CC(=O)O2)o1	?	?
Cc1cccc(-c2noc(-c3ccoc3C)n2)c1	-6.2%	-1.1%
COc1ccc(CN(C)C2c3ccccc3-c3ccccc32)cc1	-19.2%	-13.6%
Cc1onc(C(=O)Nc2cccnc2Cl)c1[N+](=O)[O-]	-18.7%	i
OCCC1CN(Cc2ccc3c(c2)CCO3)CCN1C1CCCC1 (centres undefined)	11.0%	-31.7%
O=C(Nc1cccc(Br)c1)c1cc(S(=O)(=O)N2CCOCC2)cs1	-5.3%	-13.7%
Cc1cc(-c2ccc(C)c(S(=O)(=O)Nc3ccc(C)c(N(C)C)c3)c2)on1	-16.3%	-14.1%
O=C(c1ccco1)N1CCN(c2ccc([N+](=O)[O-])cc2Cl)CC1	-9.9%	-12.3%
CC1(C)C(=O)C=C[C@@]2(C)C1CC(O)[C@]1(C)C2CC[C@@]2(C)C(c3ccoc3)OC(=O)C3O[C@]312 (some centres undefined)	?	?
Cc1c[nH]c2cccc(OCC(CNC(C)(C)C)OC(=O)c3ccccc3)c12 (centres undefined)	-9.8%	-20.8%
CCN(CC)P(=O)(NC(=O)C(Cl)(Cl)Cl)N(CC)CC.[Cl-].[Cl-].[Cl-].[Nd+3]	-8.6%	-4.1%
CCOC(=O)c1sc2ncn(/N=C/c3ccc(O)c(OC)c3)c(=O)c2c1C	?	?
COc1ccc(NC(=O)CSc2cn(CCNC(=O)c3c(F)cccc3F)c3ccccc23)cc1	-5.0%	-6.2%
COc1ccc(CCNc2nc3cc(OC)c(OC)cc3c3nc(-c4ccccc4)nn23)cc1OC	-23.0%	-23.4%
O=C(/C=C/c1ccc(Cl)cc1)Nc1ccc(N2CCOCC2)cc1	-10.7%	-10.4%
COc1cc2c(c3ccccc13)CCCC2=O	-19.5%	-26.9%
CCOc1ccc2nc(SCC(=O)NC3CCCc4ccccc43)sc2c1 (centres undefined)	-9.1%	i
CC(=O)c1ccc(Nc2nc(NCCO)nc(OC(C(F)(F)F)C(F)(F)F)n2)cc1	-25.7%	.
C=CCN(C(=O)CCC(=O)Nc1cc(C)on1)C(C(=O)NC(C)(C)C)c1ccc(OC)cc1 (centres undefined)	-10.0%	-13.4%
SMILES	Vaccinia Venus	VACV mCherry inh
CN(C)c1cccc(NC(=O)c2cccc3c(-c4ccc(F)c(F)c4)coc23)c1	31.8%[activator]	12.6%
COc1ccccc1N(C(=O)NCc1ccccc1)C1=NCC(C)S1 (centres undefined)	-9.2%	?
CC(C)Oc1ccc(CNC(=O)CCCN2C(=O)C(c3ccccc3)Oc3cccnc32)cc1 (centres undefined)	-23.1%[7.34 µM]	-21.4%[7.34 µM]
O=c1[nH]c2cc3c(cc2cc1C(c1nnnn1C1CCCC1)N1CCSCC1)OCCO3 (centres undefined)	0.1%	-11.7%
COc1ccc(-n2c(Cc3cccn3C)nnc2SCC(=O)Nc2ccc(C)cc2C)cc1	-8.9%	1.3%
Cc1nn(-c2ccccc2)c(Cl)c1/C=N/O	-19.9%	i
COC(=O)C1=C(N)Oc2c(c(=O)oc3ccccc23)[C@]12C(=O)N(C)c1ccccc12	-11.1%	.

Screening results from PubChem BioAssay.
